# Ba CapD inh: Bacillus anthracis CapD inhibitors, primary screen, biochemical, fluorescence intensity | purified CapD enzyme, fluorescence intensity read-out; hits give low values; some hits fall short of the stated cut | z-score (concentration not given with the values) | 140,000 tested, 0.23% active | CapD gamma-glutamyltranspeptidase (Bacillus anthracis Ames Ancestor);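 active means z-score under -4 in either of two replicates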;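 further: stock transfer was 100 nL into about 40 µL; score is relative to mean and spread of the plate; one replicate is shown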
# AID504770: growth inhibition of E. coli YBA685, primary screen, V. cholerae RctB inhibitors; E. coli YBA685 rctB-dependent plasmid, OD600 growth, 3 h; hits give low values; z-score (no concentration beside the values); 130,000 tested, 0.27% active;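 active means z-score under -2 on both plates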;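 further: wells of about 30 µL received 100 nL stock; score is relative to mean and SD of the test wells; the first replicate is given; strong numbers were not always called active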
# Active calls of the source: *; x = not tested or not shown; & = joins results of further samples.
# The opening 4 entries, to show the layout:
SMILES,Ba CapD inh,AID504770
CC1CCN(S(=O)(=O)N2CCCC(C(=O)O)C2)CC1 (stereo not drawn),0.365,-0.6
COc1ccc(C)cc1NC(=O)/C=C/C(=O)O,0.655,x
CC(=C1C(=O)c2ccccc2C1=O)N1CCN(Cc2ccccc2)CC1,-3.28,-0.95
CS(=O)(=O)N1CCN=C1SCc1ccc(C(F)(F)F)cc1,0.305,0.9

# The listing, from the first entry:
SMILES,Ba CapD inh,AID504770
CC1CCN(S(=O)(=O)N2CCCC(C(=O)O)C2)CC1 (stereo not drawn),0.365,-0.6
COc1ccc(C)cc1NC(=O)/C=C/C(=O)O,0.655,x
CC(=C1C(=O)c2ccccc2C1=O)N1CCN(Cc2ccccc2)CC1,-3.28,-0.95
CS(=O)(=O)N1CCN=C1SCc1ccc(C(F)(F)F)cc1,0.305,0.9
O=C(/C=C/c1ccco1)OCC(=O)c1ccc(O)cc1O,x,1.35
COc1ccc(C(C#N)(CCC#N)CCC#N)cc1,-0.955,x
O=C1CCCc2nccc(-c3ccccc3)c21,x,-0.8
CN1CCCC1CCNS(=O)(=O)c1cc(Cl)cc(Cl)c1 (stereo not drawn),0.15,x
CCOC(=O)CCCCCCCCCCCCC1C=CCC1 (stereo not drawn),-0.015,x
CC(C)Cn1c(=O)c(-[n+]2ccccc2)c([O-])c2ccccc21,21.1,-0.25
CCOCCC(=O)Nc1ccccc1C(F)(F)F,0.73,0.85
COc1ccc([N+](=O)[O-])cc1NC(=O)c1sc2ncnc(N3CCN(c4ccccn4)CC3)c2c1C,-0.3,x
c1cc(-c2ncc(-c3cnccn3)c(-c3ccncc3)n2)ccn1,-0.275,x
Fc1cc2n[nH]nc2cc1Cl,-0.63,x
COc1ccccc1Cn1c(SCC(=O)C(C)(C)C)nc2cc(C(=O)N3CCC4(CC3)OCCO4)ccc2c1=O,-0.89,x
O=C1C(=O)N(CO)C(c2ccc(Br)cc2)/C1=C(\O)c1ccccc1 (stereo not drawn),0.01,x
CC(CN1C(C)CCCC1C)OC(=O)c1ccc(Cl)cc1 (stereo not drawn),0.81,0.35
NC(=O)C1CCN(CC(=O)N2N=CCC2c2ccccc2)CC1 (stereo not drawn),x,-0.55
O=C(Nc1cccc2cccnc12)C(Cl)(Cl)Cl,-0.155,x
COc1ccc(CN2CC(C(=O)NCCCN3CCCCCC3)CC2=O)cc1 (stereo not drawn),1.17,0.4
NC(=O)C1CCN(C(=O)c2ccc3c(=O)n(Cc4ccco4)c(SCC(=O)c4ccccc4)nc3c2)CC1,-1.14,x
O=C(O)CSCC(=O)Nc1nc(SCc2ccc(Cl)cc2)n[nH]1,0.44,-0.4
CCC(=O)Nc1cc2c3c(c1)CCN3C(=O)CC2,x,-0.65
CCN(CC)CCNC1CCN(CC)CC1,x,-0.8
COc1ccc(NC(=O)C2=C(C)NC(=O)NC2c2cccc(Br)c2)cc1 (stereo not drawn),-0.29,x
CCn1c(N)c(C(N)=O)sc1=S,-1.93,1.6
CC(C)n1cc(-c2cc(C(=O)NCc3ccncc3)ccc2[N+](=O)[O-])cn1,-0.25,x
Fc1ccc(Cn2[nH]nnc2=S)cc1,0.17,-0.8
CCn1c(Cn2cc(S(=O)(=O)N3CCCC3)ccc2=O)nc2cc(S(=O)(=O)N(C)C)ccc21,x,-0.85
C=CCn1c(C)cc(C(=O)Cn2c(CN3CCOCC3)nc3ccccc3c2=O)c1C,x,0.65
Oc1c(C(c2cccnc2)N2CCCC2)ccc2cccnc12 (stereo not drawn),-0.87,-0.45
CC(C)C1C(=O)OC2(C)CC(C)(C)NC(=S)N12 (stereo not drawn),0.52,0.35
CCN1/C(=C2/SC(=S)NC2=O)Sc2ccc(OC)cc21,-0.05,x
O=C(Nc1ccc(Cl)cc1)N1CCCN(Cc2ccccc2F)C1,0.36,-0.85
O=C(Nc1ccc2c(c1)OCCO2)N1CCN2CCCCC2C1 (stereo not drawn),-0.27,-0.6
O=C(O)c1ccc(Cl)cc1N=Cc1nc(-c2ccccc2Br)oc1O,-0.415,x
CCOC(=O)N1CCN(C(=O)Cc2c(C(=O)O)n(C)c3ccccc23)CC1,1.25,0.2
CC(=O)Nc1[nH]c2c(c1C#N)CCCCC2,0.08,-0.25
CCOC(=O)c1[nH]c2ccccc2c1NC(C)=O,12.9,-0.45
O=C(CSC1=NCCS1)N1CCN(c2ccccc2)CC1,3.25,-0.35

# An excerpt of the results above, as a working copy:
SMILES,Ba CapD inh,AID504770
O=C(Nc1ccc(Cl)cc1)N1CCCN(Cc2ccccc2F)C1,0.36,-0.85
O=C(Nc1ccc2c(c1)OCCO2)N1CCN2CCCCC2C1 (stereo not drawn),-0.27,-0.6
O=C(O)c1ccc(Cl)cc1N=Cc1nc(-c2ccccc2Br)oc1O,-0.415,x
CCOC(=O)N1CCN(C(=O)Cc2c(C(=O)O)n(C)c3ccccc23)CC1,1.25,0.2
CC(=O)Nc1[nH]c2c(c1C#N)CCCCC2,0.08,-0.25
CCOC(=O)c1[nH]c2ccccc2c1NC(C)=O,12.9,-0.45
O=C(CSC1=NCCS1)N1CCN(c2ccccc2)CC1,3.25,-0.35

# Continued.
SMILES,Ba CapD inh,AID504770
COc1ccc2cc(/C=C3/C(=O)NC(=S)N3C(C)=O)c(N3CCOCC3)nc2c1,1.64,-0.1
CC(=NCc1ccc(C)cc1)c1c(O)cc(C)oc1=O,x,-0.85
O=C1c2ccccc2C(=O)N1CCCc1nc(-c2ccc(Cl)cc2)no1,-0.285,0.45
FC(F)(F)c1cccc(-n2cc(-c3ccccc3)c3c(NCc4cccnc4)ncnc32)c1,-0.505,x
Cc1cc(C)nc(-n2nc(C)cc2NC(=O)c2ccc(Cl)c(S(=O)(=O)N3CCOCC3)c2)n1,x,1.6
NS(=O)(=O)c1ccc(NC(=O)CCCC(=O)N2CCOCC2)cc1,1.31,-0.5
Cc1cscc1NC(=O)/C=C/C(=O)O,-1.31,0.55
CCCNC(=O)Cn1cc(S(=O)(=O)N2CCCC2)c(S(=O)(=O)N2CCCC2)c1,0.685,-0.2
COc1cc2nc(SCc3ccc(F)cc3)n3nc(-c4ccccc4)nc3c2cc1OC,-0.445,-0.4
CN(C)S(=O)(=O)c1ccc(N2CCCC2)c(C(=O)OCc2ccc(F)cc2)c1,x,-0.6
Cc1cc(C)cc(NC(=S)Nc2cccc(Cl)c2C)c1,-0.32,x
OC(CCN1CCCCC1)(c1ccccc1)C1CCCCC1 (stereo not drawn),0.18&-0.22,-0.05
CC1CCCCC1NC(=O)C1c2cccn2CC(=O)N1Cc1ccccc1 (stereo not drawn),-0.015,0.85
N#Cc1cccc(CSc2nc(NC3CC3)c3ccccc3n2)c1,x,1.25
CC(C)N(C(=O)CSc1nnc(Cc2cccs2)n1CCc1ccccc1)C(C)C,x,-0.15
CC(=O)Nc1ccc(S(N)(=O)=O)cc1Cl,-0.04,x
N#CC(C#N)=C1c2cc([N+](=O)[O-])ccc2-c2c1cccc2[N+](=O)[O-],-0.12,x
O=C(O)CCC(=O)N(Cc1cccs1)Cc1cccs1,0.355,-0.2
CCOC(=O)/C(C)=C1\NC(C)(C)Cc2ccccc21,x,0.85
O=C1/C(=C/c2ccc(Cl)cc2)C=C(c2ccccc2)N1c1cccc(Cl)c1Cl,-0.165,x
O=C(N/N=C/c1sc(N2CCCCC2)nc1-c1cccs1)c1ccccc1,x,-0.25
Cc1ccccc1C(=O)NCC1CCCN2CCCCC12 (stereo not drawn),-0.105,2.05
COc1ccc(-c2c(C)c3ccc(OC(=O)N4CCOCC4)cc3oc2=O)cc1,x,0.3
COc1ccc(/C=N/NC(=O)c2ccccc2[N+](=O)[O-])c(OC)c1C,-0.835,x
O=C(CC(C(=O)O)N1CCOCC1)Nc1ccc(Cl)cc1Cl (stereo not drawn),-0.5,0.35
Cc1ccc2nc(-c3ccc(C(F)(F)F)cc3)oc2c1,29.4,-0.75
Cc1cccc2c1-c1sc(C(=O)NCCN3CCCCC3C)cc1CO2 (stereo not drawn),-0.49,-0.05
CC1=C(C(=O)OCCOC(C)C)C(c2cc3c(cc2Br)OCO3)NC(=O)N1 (stereo not drawn),-0.795,x
Cn1c2ccccc2c2cnn(CNC(=O)Nc3ccc(F)cc3)c(=O)c21,0.73,x
CC(C)C(NC(=O)c1ccc(C23CC4CC(CC(C4)C2)C3)cc1)C(=O)N(C)Cc1ccco1 (stereo not drawn),-0.495,-0.95
Cn1cnnc1SCC(=O)c1ccc(Cl)cc1,0.345,0.25
COc1cccc(C(=O)Nc2c(-c3ccccc3)nc3cc(C)ccn23)c1,0.225,x
CN(c1ccccc1)S(=O)(=O)c1cc2c3c(c1)CCC(=O)N3CCC2,x,1.1
COc1cccc(NC(=O)Cn2ncc3c(=O)oc4ccccc4c32)c1,-0.195,0.3
O=c1cc(N2CCCC2)[nH]c(=O)n1-c1ccc(Cl)cc1,0.13,-0.85
COCCNC(=O)c1cccc2c1SCCC2=O,0.06,-1.25
O=C(NCCc1ccccc1)c1cc(-c2cccs2)on1,-0.16,0.75
CC(c1ccccc1)C1OCC(CN2CCCCC2)O1 (stereo not drawn),0.18,-0.5
COC(=O)c1cc(=O)[nH]c(SCc2cccc(C)c2)n1,x,-0.05
O=C(C(Cc1ccccc1)n1cccc1)N1CCc2ccccc21 (stereo not drawn),0.06,-0.7
CCn1c2ccccc2c2cc(NS(=O)(=O)c3cccs3)ccc21,x,0.2
CCOC(=O)c1[nH]c2ccc([N+](=O)[O-])cc2c1CCN1C(=O)c2ccccc2C1=O,-0.415,x
N#Cc1c(NC(=O)CO/N=C/c2ccccc2)oc(-c2ccccc2)c1-c1ccccc1,0.245,x
COc1ccc(S(=O)(=O)Nc2ccccc2C(=O)N2CCCCC2)cc1,x,1.6
CN(C)c1nnc(/C(C#N)=C/c2cc(C(=O)c3cccc(Cl)c3)cn2C)o1,0.815,x
O=C(Cc1ccc(N2CCCC2=O)cc1)Nc1ccc(-c2nnc3n2CCCCC3)cc1,x,0.45
COc1cc2c(cc1OC)C(C)N(C(=O)c1snnc1C)CC2 (stereo not drawn),2.27,0
NCC1OCCc2ccccc21 (stereo not drawn),x,-0.6
CSc1ncc(S(=O)(=O)Cc2ccco2)c(N)n1,-0.455,-0.2
Cc1cccc(NC(=O)C2C3CC/C=C\CCC32)c1 (stereo not drawn),0.16,0.15
COc1ccc(OCCN2C(=O)CNC2=S)cc1,0.355,0.6
Cc1cccc(OCC(=O)NCC(=O)n2nc(C)cc2C)c1,0.02,0.15
CCSc1ncc(/C=N/Nc2c(Cl)cc(Cl)cc2Cl)n1C,-0.61,x
CCOC(=O)C1=C(C)N=c2s/c(=C3\C(=O)N(CC)c4ccccc43)c(=O)n2C1c1cccc([N+](=O)[O-])c1 (stereo not drawn),0.19,x
CCOC(=O)c1c(C)oc2ccc(N(C(=O)c3ccc([N+](=O)[O-])cc3)S(=O)(=O)c3ccc(Br)cc3)cc12,0.105,x
CCN(CC)C(=O)c1ccc2c(c1)OCO2,-0.16,0.1
COc1cccc(/C=C2\SC(=S)N(CCCC(=O)NC(C)(C)C)C2=O)c1,0.06,-0.1
CCc1cc(-c2n[nH]c(C)c2-c2nc3ccccc3n2C)c(O)cc1O,8.76,-0.5
Cc1cc(-c2nnc(-c3ccc(Cl)cc3)o2)no1,10,1.9
Cc1ccc(C(=O)OCC(=O)/C=C2\N(C)c3ccccc3C2(C)C)cc1NC(=O)c1ccco1,x,-1.3
# New compounds follow:
SMILES,Ba CapD inh,AID504770
COc1ccc(C(CC#N)C(C)C)cc1 (stereo not drawn),-0.445,-1
O=C(c1nnc(Cc2ccc(F)cc2Cl)o1)N1CCCC1,0.075,-0.5
CCOc1ccccc1NC(=O)c1cc(=O)[nH]c2ccccc12,-1.19,3.2
Cc1[nH]c2ccccc2c1C(=O)CN1CCN(S(=O)(=O)/C=C/c2ccccc2)CC1,x,-0.75
O=C1NC(=O)C(Nc2ccccc2Cl)S1 (stereo not drawn),x,-0.5
Cc1c(Nc2ncnc3c2cnn3C)c(=O)n(-c2ccccc2)n1C,0.48,-0.35
CCCCC1CCC(c2cnc(-c3ccc(OC(F)F)cc3)nc2)CC1 (stereo not drawn),-0.11,x
CCN(CC)CN1C(=O)C2C3c4ccccc4C(c4ccccc43)C2C1=O (stereo not drawn),x,-0.45
NCCc1nc2cc(C(F)(F)F)ccc2s1,x,1.25
CCCNC1CCN(Cc2c(OC)cccc2OC)CC1,-0.375,x
CNc1nc2ccccc2n1CCO,1.08,0.25
COC(=O)N1C2C=CC(C2)C1(C(F)(F)F)C(F)(F)F (stereo not drawn),0.725,0.1
O=C(Nc1ccc2c(c1)nc1n2CCN(Cc2ccccc2)C1)C1CCCCC1,-0.145,0.2
COc1cc(Cl)c(NC(=O)c2cc(C)[nH]n2)c(OC)c1,7.81,0.55
O=C(CN(CCc1ccccc1)S(=O)(=O)c1ccc(Br)cc1)NC1CC1,-0.65,-0.9
CC1(C)CC(=O)C2=C(C1)NC(=O)CC2c1ccccc1 (stereo not drawn),-0.42,1.55
O=C(NNC(=O)c1ccc2nccnc2c1)OCCSCc1ccc2nonc2c1,-1.26,x
CCCCc1nc2ccccc2c(=O)n1-c1ccc(C)cc1,0.17,0.1
Cn1c(C(C#N)C(=O)COc2ccc(Cl)cc2)nc2ccccc21 (stereo not drawn),x,0.15
NS(=O)(=O)c1ccc(CCNC(=O)c2cc3c(s2)-c2ccccc2OC3)cc1,0.245,0.65
Cc1ccc(SCC(=O)Nc2ccc(F)cc2)cc1,-0.655,-0.45
COc1ccc(N(C(C)=O)S(=O)(=O)c2ccc(F)cc2)cc1,-7.35*,-0.6
O=C(O)c1ccccc1Sc1ncnc2sccc12,x,-0.5
